2A Renilla: Primary qHTS Assay for Foot and Mouth Disease Virus Antivirals against NCGC Sytravon and CBC Compound Libraries: Renilla Luciferase Signal. HEK cells with a luciferase reporter of 2A StopGo recoding. Potency, µM (series often up to 57.5 µM), inactives show top-dose signal change, negative = less light. 120,000 tested, 0.32% active. AID 1745857, 2022; active means well fitted falling curve with a large enough effect; inconclusive means small, poorly fitted or top-dose-only effect; inactive means no such curve, though single readings can be large or run the other way; also: nearly all actives have a fitted effect of over 55% in size; overnight with compound
2A firefly: Primary qHTS Assay for Foot and Mouth Disease Virus Antivirals against NCGC Sytravon and CBC Compound Libraries: Firefly Luciferase Signal. HEK cells with a luciferase reporter of 2A StopGo recoding. Potency, µM (highest dose often 57.5 µM), for inactives: top-dose signal change, negative = less light. 120,000 tested, 0.23% active. AID 1745856, 2022; active = well fitted falling curve with a large enough effect; inconclusive = small, poorly fitted or top-dose-only effect; inactive = no such curve, though single readings can be large or run the other way; also: nearly all actives have a fitted effect of over 60% in size; overnight with compound
* hit, by the source's call; ? = inconclusive; & = joins results of further samples; [ ] = another dose, or the depositor's remark. % is scaled to controls: 0 for no effect and ±100 for the full control effect; potency is read from the fitted curve at half-maximal effect.

SMILES	2A Renilla	2A firefly
CCc1ccc2oc(C(=O)NCC(c3cccs3)N3CCCC3)cc(=O)c2c1 (centres undefined)	-2.5%	-21.3%
COC(=O)c1cc(NC(=O)CCS(=O)(=O)c2cc(Br)cc3c2N(C(=O)C2CC2)CC3)cc(C(=O)OC)c1	-8.3%	-8.4%
CC(=O)c1ccc(NC(=O)CC(C)(C)CC(=O)O)cc1	6.7%	7.0%
CCCCN1CC(c2nc3ccccc3n2CCCCOc2c(C)cccc2C)CC1=O (centres undefined)	-19.4%	-9.8%
CCc1ccc(OC(=O)CSc2nnc(-c3ccc4c(c3)OCO4)o2)cc1	9.1%	?
O=C(COC(=O)c1cc2ccccc2[nH]1)c1ccc2ccccc2c1	-7.0%	7.3%
CC(C)COc1ccc(C(=O)N2CCN(CCc3ccccn3)CC2)cc1	0.3%	-2.5%
[O-][n+]1ccn(O)c1	4.0%	5.5%
Cc1[nH]c(=O)[nH]c(=O)c1S(=O)(=O)Nc1cccc(Cl)c1C	-11.7%&-7.8%	-10.8%&-10.3%
CNC(=O)C1CCN(Cc2nc3ccccc3c(C)c2C(=O)OC)CC1	2.9%	-1.2%
COc1cccc(NC(=O)CN2CCN(c3nc(-c4ccco4)c4c(c3C#N)CCC4)CC2)c1	-3.1%	-5.0%
CCOc1ccc2c(c1)c(=O)c(C(=O)c1ccc(C)cc1)cn2Cc1ccccc1OC	6.1%	-1.6%

Full records as entered above.
Listed for [O-][n+]1ccn(O)c1 → 2A Renilla = 4.0%; 2A firefly = 5.5%
Listed for CCOc1ccc2c(c1)c(=O)c(C(=O)c1ccc(C)cc1)cn2Cc1ccccc1OC → 2A Renilla = 6.1%; 2A firefly = -1.6%

More records:
SMILES	2A Renilla	2A firefly
Cc1cccc(-n2nnnc2SCn2nnc3ccccc3c2=O)c1	9.3%	110.0%[activator]
CC(=O)N1CCCc2cc(S(=O)(=O)N3CCCC(C(=O)N4CCN(c5ccccc5)CC4)C3)ccc21 (centres undefined)	?	?
COc1ccc(C(=O)NCC(c2ccco2)S(=O)(=O)c2cccs2)cc1OC (centres undefined)	17.2%	-10.4%
CCOC(=O)c1c(S(=O)(=O)NCC(=O)Nc2ccc(Cl)c(C(F)(F)F)c2)c(C)n(C)c1C	184.8%[activator]	-1.5%
Cc1ccc(C(=O)N(CCC(N)=O)c2ccc(F)cc2)cc1	-6.3%	5.8%
N#CC1=C(n2cccc2)N(c2ccc(Br)cn2)C2=C(C(=O)CCC2)C1c1cccc(C(F)(F)F)c1 (centres undefined)	-21.6%	-19.0%
C(#Cc1ccccc1)C[N+]1(CC#Cc2ccccc2)CCCC1	14.0%[1.06 µM]	-5.7%
CC(C)c1ccc(NC(=O)C2CCCN(S(=O)(=O)c3ccc(Br)s3)C2)cc1 (centres undefined)	?	-5.3%
NC(=O)c1ccc(CN(C(=O)/C=C/c2cccs2)C2CC2)cc1	49.4%[activator]	84.7%[activator]
CCOC(=O)c1c(NC(=O)CSc2ncnc3ccccc23)sc2c1CCCC2	-17.5%	-6.3%
O=C(CN1C2=NCCN2c2ccccc21)c1ccc(Cl)cc1Cl	-11.8%	0.5%
CCOC(=O)c1cc2cc(Br)ccc2oc1=O	-7.7%	5.0%
COc1ccc(Oc2coc3cc(OC(=O)c4ccc(OC)c(OC)c4)ccc3c2=O)cc1	-10.0%	0.6%
CCOC(=O)N1CCC(NC(=O)C2CCN(Cc3nc(-c4ccccc4)no3)CC2)CC1	?	?
COc1ccc(C2C(C(N)=O)=C(C)Nc3nc(-c4cccc(C)c4)nn32)cc1 (centres undefined)	-2.7%	-2.6%
COc1cc(NC(=O)N2CCC3(CC2)Nc2ccccc2-n2cccc23)cc(OC)c1OC	81.8%[activator]	?
Cc1csc2nc(COC(=O)CNC(=O)c3ccc(F)cc3)cc(=O)n12	-10.5%	-12.8%
CCCCCn1c(=O)[nH]c2cc(C(=O)NCc3ccccc3)ccc2c1=O	-2.6%	-8.7%
COc1ccc(N(CC(=O)N2CCN(c3ccc(F)cc3)CC2)S(=O)(=O)c2c(C)nn(C)c2C)cc1	0.7%	-19.4%
COc1ccc2nc(C)cc(SCC(NC(=O)CN(C)C)C(=O)O)c2c1 (centres undefined)	-0.5%	-0.5%
N#CC1(NC(=O)CSc2nc3ccccc3o2)CCCCC1	0.8%	9.4%
O=C(O)CCC(=O)N1CCOCC1	-8.4%	0.0%
O=C(CCc1ncc(-c2ccccc2F)o1)NCCN1CCOCC1	-3.8%	24.9%
Cc1cc(OCC(=O)N(Cc2ccc(N(C)C)cc2)C2CCS(=O)(=O)C2)cc(C)c1Cl (centres undefined)	4.7%	-14.0%
CCC1(CC)NC(=O)N(Cc2coc(-c3cccc(F)c3)n2)C1=O	0.7%	27.1%
O=c1cc(CSc2ncn[nH]2)[nH]c2ccc(F)cc12	-5.9%	-4.3%
CCCSc1nnc2c(n1)OC(c1ccc(Br)s1)Nc1ccccc1-2 (centres undefined)	13.4%	183.0%[activator]
CC1(C)CC(=O)C2=C(C1)OC(N)=C(C#N)C2c1ccc(C(F)(F)F)cc1 (centres undefined)	27.5%	5.1%
Cc1cccc(-n2ncc(C(=O)N3CCc4ccccc4C3)c2C2CCN(C(=O)OC(C)(C)C)CC2)c1	5.6%	10.7%
COc1cccc(NC(=O)c2ccc3c(c2)CCN3S(C)(=O)=O)c1	9.7%	182.8%[activator]
COc1cc(NC(=O)c2ccc(-c3nc(CSc4ccccc4)c(C)o3)cc2)cc(OC)c1	?	?
Cc1cc2cc(NS(=O)(=O)c3ccc4ccccc4c3)ccc2[nH]1	240.5%[activator]	-2.0%
COc1ccc(S(=O)(=O)c2nnn(-c3ccc(C(C)C)cc3)c2C)cc1	9.6%	1.8%
CSc1ccc(NC(=O)c2ccc3c(c2)OCC(=O)N3)cc1	10.5%	13.3%
Cn1c(SCC(=O)NC(C)(C)C)nnc1-c1cc2c(s1)CCC(C(C)(C)C)C2 (centres undefined)	-19.8%	12.0%
COCCn1c(=O)c2c(nc(-n3nc(C)c(C)c3C)n2Cc2ccccc2)n(C)c1=O	-7.0%	-8.3%
CSc1ncc(C(=O)Nc2ccccc2C(F)(F)F)c(-c2ccccc2)n1	4.2%	-2.0%
Cn1c(=O)c(=O)n(C)c2cc(S(=O)(=O)N3CCCC3C(=O)Nc3ccc(F)cc3)ccc21 (centres undefined)	-0.6%	0.0%
Cc1ccc(N=C2NN=C(c3ccc4c(c3)CC(C)N4S(C)(=O)=O)CS2)c(C)c1 (centres undefined)	-5.9%	-7.8%
COC(=O)c1cc2sccc2n1CC(=O)Nc1ccc(OC)c(OC)c1	-3.9%	9.3%
Cc1cc(C)cc(C(=O)OCCN(C)C2CN(Cc3cn(Cc4ccccc4F)nn3)S(=O)(=O)C2)c1 (centres undefined)	20.3%	9.4%
COc1ccc(-c2cc3nc(C)c(CCC(=O)N4CCN(c5ccccc5)CC4)c(C)n3n2)c(OC)c1	-8.1%	-30.3%
Cc1ccc(C(=O)C(C)OC(=O)Cc2n[nH]c(=O)c3ccccc23)cc1C (centres undefined)	7.2%	2.0%
Cc1ccccc1C(=O)NC(c1ccccc1)C(C)(C)C (centres undefined)	19.3%	12.4%
c1ccc(CN2CCCNC2)cc1	-2.0%	4.4%
COc1ccc(C(NC(=O)c2nc(-c3ccco3)sc2C)c2nccn2C)cc1 (centres undefined)	3.9%	-5.1%
Cc1nc2ccc(C(=O)N3CCN(C(=O)C4CC4)CC3)cc2nc1C	-12.2%	-0.7%
CC1(C)CC(=O)C2=C(C1)OC(=O)CC2c1ccc2ccccc2c1 (centres undefined)	5.9%	14.5%
Cc1noc(Cn2c(=O)c3ccccc3n(CC(=O)Nc3cc(Cl)ccc3C)c2=O)n1	-3.7%	-9.8%
CC1=C(C(=O)OCc2ccc(C)cc2)C(c2ccccc2F)CC(=O)N1 (centres undefined)	-32.3%	?
CCOc1ccccc1N1CCN(CC(=O)Nc2ccc(C)cc2F)CC1	-15.0%	-13.2%
N#Cc1c(C(F)(F)F)cc(-c2cccs2)nc1SCc1ccccc1F	-9.7%	-19.8%
O=c1c(=O)n(-c2ccc(F)c(F)c2)ccn1Cc1ccc(F)cc1Cl	-5.1%	-4.8%
Cc1cccc(-c2ocnc2C(=O)Nc2ccc(C)c(Cl)c2)c1	-5.7%	-2.0%
N#Cc1ccc(CSc2nnc(N3CCCCC3)n2-c2ccccc2)cc1	-6.3%	-23.7%
CCOC(=O)c1ccccc1NC(=O)NCc1cccn1Cc1ccc(F)cc1	21.0%	13.9%
COc1ccccc1-c1cc(C(=O)NCCc2ccccc2)no1	32.8%[activator]	225.5%[activator]
CCn1c(C)c(C)c2cc(C(=O)NCCCN3CCCCC3C)ccc21 (centres undefined)	7.2%	0.0%
O=[N+]([O-])c1ccccc1OCCCOc1ccc(Cl)c2cccnc12	?	-44.6%
COc1ccc(CN(CC(F)(F)F)C(=O)c2cnc3ccccc3n2)cc1	7.0%	0.0%

The list goes on; it opens with the 4 that closed the last part.
SMILES	2A Renilla	2A firefly
COc1ccccc1-c1cc(C(=O)NCCc2ccccc2)no1	32.8%[activator]	225.5%[activator]
CCn1c(C)c(C)c2cc(C(=O)NCCCN3CCCCC3C)ccc21 (centres undefined)	7.2%	0.0%
O=[N+]([O-])c1ccccc1OCCCOc1ccc(Cl)c2cccnc12	?	-44.6%
COc1ccc(CN(CC(F)(F)F)C(=O)c2cnc3ccccc3n2)cc1	7.0%	0.0%
COc1ccc(Nc2nc(-c3ccc(C)cc3)cs2)cc1	14.8%	223.2%[activator]
CCOc1ccc(C2CCCN2C(=O)c2nn(C)c(=O)c3ccccc23)cc1 (centres undefined)	-6.6%	-3.9%
CC(Nc1ncccc1[N+](=O)[O-])c1cccc(Cl)c1 (centres undefined)	-4.8%	0.9%
Cc1cc2nn(-c3ccc(Cl)cc3)nc2cc1NC(=O)C(C)C	-0.4%	-13.9%
CC(C)(C)CC(C)(C)NC(=O)C1CNC(=O)C1 (centres undefined)	-4.0%	-5.7%
CC(C)OCc1ccccc1CNS(=O)(=O)c1ccc(Cl)cc1C(F)(F)F	145.3%[activator]	-0.8%
Cc1nn(C)c(C)c1CC(=O)NCc1cccnc1N1CCOCC1	-4.3%	4.6%
NC(=O)C1CCN(c2csc3ccc(F)cc3c2=O)CC1	59.1%[activator]	10.1%
O=C(O)CCC(CNS(=O)(=O)c1ccc(F)cc1)C(F)(F)F (centres undefined)	-8.5%[1.06 µM]	0.0%
Cc1cccc(-c2nc3c4ccccc4nc(NCc4ccccc4Cl)n3n2)c1	-5.9%	91.4%[activator]
N#Cc1ccccc1-n1cccc1	4.8%	5.2%
O=C(CSc1nc(-c2ccc(F)cc2)cc(C(F)(F)F)n1)NCc1ccccc1	-6.6%	-8.7%
O=c1c(Cl)c(N2CCN(S(=O)(=O)c3ccc4ccccc4c3)CC2)cnn1-c1ccccc1	3.3%	6.2%
Cc1sc2c(c1C)c(=O)n(-c1ccc(Cl)cc1)c(=O)n2Cc1c(F)cccc1Cl	-13.8%	-21.8%
O=C(CCc1ccccc1)N1CC=C(c2c[nH]c3ccccc23)CC1	-10.0%	18.3%
CCCC(=O)Nc1nn2c(-c3ccccc3)nnc2s1	-9.6%	-3.5%
CC(C)COC(=O)/C(=C/c1ccco1)NC(=O)c1ccccc1Cl	94.9%[activator]	18.6%
Cc1cc(-c2ccc(C)c(S(=O)(=O)NC3CCCCC3)c2)on1	-0.6%	9.9%
O=C(Nc1c(NC2CCCC2)c2ccccc2oc1=O)c1cccs1	4.3%	7.2%
CCC/C(=N\NC(=O)c1ccc(C(C)(C)C)cc1)c1ccccc1	0.4%	27.9%
Cc1ccccc1CNC(=O)CSc1cccs1	28.2%	0.0%
COC(=O)C1=C(C)N(C)C(=O)NC1c1ccc(Br)o1 (centres undefined)	6.2%	26.6%
CCOC(=O)Cn1c(=O)oc2cc(S(=O)(=O)N3CCN(c4cccc(C)c4)C(C)C3)ccc21 (centres undefined)	-12.0%	0.0%
Cc1cc(C)c2oc(C(=O)Nc3c(C(=O)c4ccccc4)oc4ccccc34)cc(=O)c2c1	16.5%	11.8%
CN(C)c1cc(NC(=O)CNC(C)(C)C)c(O)c2c1C[C@@H]1C[C@H]3[C@H](N(C)C)C(=O)C(C(N)=O)=C(O)[C@@]3(O)C(=O)C1=C2O	-2.2%	-2.1%[11.5 µM]
COc1ccc(CCNC(=O)c2ccc3c(c2)N(Cc2cccc(Cl)c2)C(=O)CS3)cc1OC	?	?
Cc1cccc2c(C(=O)O)cc(-c3ccc(OC(C)C)cc3)nc12	7.0%	0.0%
CC(C)Sc1nc2c(c(=O)n(C)c(=O)n2C)n1Cc1ccccc1	-10.1%	-6.4%
Cc1ccc2c(=O)cc(C(=O)Nc3ccc(S(=O)(=O)Nc4nc(C)cc(C)n4)cc3)oc2c1	29.8%&60.7%	3.5%&-3.9%
COCCn1cc(C(=O)NCCc2ccc(S(N)(=O)=O)cc2)ccc1=O	2.4%	4.9%
Cc1oc(-c2ccccc2)nc1CN1CCCC1c1nnc2ccccn12 (centres undefined)	-5.9%	-10.2%
Cc1ccc2c(c1)-c1c(c(C(=O)N3CCN(c4cc(C)ccc4C)CC3)nn1C)CS2	-2.4%	-26.2%
CCOC(=O)c1ccc(N2CCN(c3ccccc3OC)CC2)c(NC(=O)Nc2ccc(CC)cc2)c1	6.3%	0.0%
CSc1oc(-c2cccs2)nc1S(=O)(=O)c1ccc(Br)cc1	174.9%[activator]	7.1%
Cc1ccc(-n2c(=O)c3c(C)c(C(=O)N(C)C)sc3n(CC(=O)C(C)(C)C)c2=O)cc1C	-12.5%	0.0%

Screens: PubChem BioAssay, National Center for Advancing Translational Sciences (NCATS)

This is a subset, so the mix of outcomes need not match the whole.
